Assay outcomes as filed in PubChem.
StopGo reporter – High Throughput Screening for Foot and Mouth Disease Virus Antivirals | Potency, µM (series often up to 57.9 µM), for inactives: top-dose signal change, negative = less light | 410,000 tested, 1.2% active | human cells with a luciferase reporter of 2A StopGo recoding; control for the full effect not named in the record; active = well fitted falling curve with a large enough effect; inconclusive = small, poorly fitted or top-dose-only effect; inactive = no such curve, though single readings can be large or run the other way; tested in HEK293T cells; further: nearly all actives have a fitted effect of over 45% in size; luciferase light after 4 h
RE007 growth inh – qHTS Assay for Inhibitors of the HIV-1 protein Vpr; 360,000 tested, 0.21% active; S. pombe RE007 Vpr strain, BacTiter-Glo ATP luminescence, 24 h; control for the full effect not named in the record; Potency, µM (doses to about 92.2 µM), for inactives: top-dose activity change, negative = less growth; active = well fitted falling curve with a large enough effect; inconclusive = small, poorly fitted or top-dose-only effect; inactive = no such curve, though single readings can be large or run the other way;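 further: nearly all actives have a fitted effect of over 50% in size; the assay follows cell death caused by Vpr and the record does not say whether a fall means rescue or toxicity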
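Fission yeast strain RE007, carrying one chromosomally integrated HIV-1 vpr copy, was seeded at OD 0.01 in PMG+AL medium with 23 nL pinned compound. After 24 h at 30 °C and 99% humidity, viability was read by BacTiter-Glo luminescence.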
* hit, by the source's call; ? = inconclusive; [ ] = dose if it differs, or a comment. On the % scale 0 is the no-effect control and ±100 the full control effect; potency means the concentration at half of the fitted maximal effect. Only part of the results is shown; rates above refer to the full screens.

SMILES	StopGo reporter	RE007 growth inh
C[C@H](CO)N1C[C@H](C)[C@H](CN(C)S(=O)(=O)c2ccc3c(c2)OCCCO3)OCc2cnnn2CCCC1=O	-8%	8%
CCOc1ccccc1CN1[C@@H](c2ccc(OC)cc2)CC(C(=O)OC)(C(=O)OC)[C@H]1c1ccccc1	-11%	6%
COc1cccc(CNC(=O)[C@@H]2CCCN2C(=O)[C@@H]2CCCN2C(=O)c2c(F)cccc2F)c1	-16%	8%
CCCCNC(=O)C1(C)CCCCN1CC(=O)c1ccc(OC)cc1 (stereo not drawn)	2%	6%[18.4 µM]
O=C1CCCC(=O)N1CCCCCCN1C(=O)CCCC1=O	0%	-7%
Cc1cccc(C)c1NC(=O)C(c1ccc(C#N)cc1)n1c(=O)c(-c2ccccc2)nc2ccccc21 (stereo not drawn)	1%	11%
CC1(C(=O)NS(=O)(=O)c2ccccc2Cl)CCN1C(=O)c1ccccc1 (stereo not drawn)	-9%	9%
CCOCCOc1cc(NCc2ccccc2)c2ncn(C(C)C)c2c1	-20%	-12%
COc1cc(OC)cc(C2=Cc3ccccc3C(CC(C)=O)N2c2ccc(C#CCCO)cc2)c1 (stereo not drawn)	-26%	1%
CC1(c2nnc(Cc3ccccc3)o2)CC(c2ccc(Cl)cc2)=NO1 (stereo not drawn)	1%	9%
CCc1cc(-c2nnn(CCC3COCCO3)c2CC)ccc1-c1cn(Cc2ccccc2)nn1 (stereo not drawn)	?	-13%
COc1cc(NC(C)CCCN)c2nc(C)ccc2c1Oc1ccc(F)cc1 (stereo not drawn)	?	1%
C[C@H](NC(=O)c1ncn2c1C(=O)N(C)CC2)C(=O)OC(C)(C)C	-2%	5%
CC(C)NC(=O)c1cc(C2CCCCN2C(=O)CCCc2ccccc2)on1 (stereo not drawn)	-7%	9%
CC(O)(c1ccc(F)c(F)c1)c1nc(-c2cccc(F)c2)cs1 (stereo not drawn)	-18%	?
CCCCC[C@@H]1[C@@H]2C(=C(OCC)C[C@@H]3C(=O)N(c4ccccc4)C(=O)[C@H]23)[C@H](c2ccccc2)N1S(=O)(=O)c1ccc(C)cc1	10%	-3%
COc1ccc(C2=Nc3ccccc3NC(=O)C2N(C(=O)c2cnc(C)cn2)c2ccc(N3CCOCC3)cc2)cc1 (stereo not drawn)	17%	7%
C#CCN(C[C@@H]1[C@@H](OC(=O)NCC2CCCCC2)[C@@H](OC(=O)NCC2CCCCC2)Cn2c(=O)ccc(=O)n21)S(=O)(=O)c1ccc(C)cc1	10µM*	-1%
Cc1ncc(CO)n1Cc1ccc(Cl)cc1	-29%	1%
CN(C)CCNc1ncnc2c1ncn2[C@H]1CN(Cc2ccc3c(c2)OCO3)C[C@@H](CO)O1	9%	-1%
O=C(COc1ccc(F)cc1)N/N=C/c1cccc2cccnc12	-12%	-29%
COc1ccccc1N1CCN(C(=O)[C@@H]2CCCN2C2=NS(=O)(=O)c3ccccc32)CC1	36%[activator]	-14%
O=C(CCC1CCCN(C(=O)c2cc3ccccc3o2)C1)NCc1ccc(F)c(F)c1 (stereo not drawn)	32%[activator]	4%
Cc1ccn(CC(=O)N2CCCC(N3CCN(c4cccc(C(F)(F)F)c4)CC3)C2)n1 (stereo not drawn)	-18%	-9%
CC1Cc2[nH]c(=S)[nH]c(=O)c2C(c2ccc(F)cc2)O1 (stereo not drawn)	-18%	-5%
SMILES	StopGo reporter	RE007 growth inh
COC(=O)[C@]12CCCCC=C1N(Cc1ccccc1)C(=O)[C@H](CC(=O)NCC13CC4CC(CC(C4)C1)C3)C2	0%	2%
Cc1ccc(C(=O)OCC(=O)Nc2cccc(Br)c2)s1	-18%	-17%
COc1ccc(C(=O)NCCCC2CCCC2)cc1OC1CCN(C(C)C)CC1	19%	-3%
C[N+](C)(C)CCN1C(=O)c2ccccc2C1=O	-22%	-7%
CN1OC[C@@H]2CN(C(=O)CCc3ccccc3)[C@H](c3ccc(-n4ccnc4)cc3)C[C@@H]21	-8%	10%
CC(=O)NC(CC(C)C)C(=O)O (stereo not drawn)	-15%	-10%
CCN1C(=O)CSC1=Nc1ccc(C(=O)OC)cc1	?	5%
COc1cccc(CN2CC(C(=O)NCCc3cn4cccnc4n3)CCC2=O)c1 (stereo not drawn)	-24%	-10%
CSc1ccc(C(O)c2ncc(-c3ccc(F)cc3)[nH]2)cc1 (stereo not drawn)	15%	-22%
CCCCC[C@H](C)N1C[C@H](COCc2ccccc2)Oc2cc(N3CCC[C@@H]3COC)ccc2S1(=O)=O	-8%	20%
CCCCN1CCC(=O)C(C(=O)OCC)=C1C(=O)OCC	-21%	-2%
O=C(c1ccco1)N1CCN(c2ccc([N+](=O)[O-])cn2)CC1	9%	-7%
CC(C)CC1NC(=O)c2cc3ccccc3cc2-n2c1nc1ccc(F)cc1c2=O (stereo not drawn)	?	-3%
CCOc1ccc(CCN2C(=S)N([C@@H](Cc3ccc(O)cc3)CN3CCC[C@@H]3CN3C(=S)NC[C@@H]3Cc3ccccc3)C[C@@H]2Cc2ccccc2)cc1	-10%	-6%
CCCC(=O)N1CCC1(C)C(=O)NS(=O)(=O)c1cccc(C)c1 (stereo not drawn)	-25%	1%[18.4 µM]
CN(C(=O)c1cccc(NC(=O)Cc2ccc(NC(=O)C3CCCN(S(=O)(=O)c4cccc([N+](=O)[O-])c4)C3)cc2)c1)C1CCC1 (stereo not drawn)	0%	5%
CCCC(=O)N1CCCC1(C)C(=O)Nc1cccc(OC(C)C)c1 (stereo not drawn)	-4%	9%[18.4 µM]
O=C(NCc1ccccc1)C1Nc2ccc(OC(F)(F)F)cc2C2C=CCC12 (stereo not drawn)	?	-16%
Cc1ccc(NC(=O)C2(C)CCN2Cc2csc3ccccc23)cc1 (stereo not drawn)	-7%	-7%[18.4 µM]
O[C@@H]1C[C@H](c2ccc(Cl)cc2)N(Cc2cccs2)C[C@H]1n1cc(C2CC2)nn1	-25%	-6%
COc1cc(Cl)ccc1OCc1cc(C(=O)N2CCN(C3CCCCC3)CC2)no1	23%	-2%
CC(C)CC1C(=O)N(Cc2cn(CC3CCCCC3)nn2)CCS(=O)(=O)N1Cc1ccc(-c2ccc(Cl)cc2)cc1 (stereo not drawn)	0%	?
COc1cc(-c2cnc3c(NC(C)=O)cc(-c4ccccc4CN(C)C)cn23)cc(OC)c1OC	-17%	-15%
O=C(c1c(F)c(F)c(F)c(F)c1F)N1CCN(Cc2ccc3c(c2)OCO3)CC1	?	65%
CCN(CC)C(=O)c1cccc(-c2csc(C(O)c3cccc(Cl)c3)n2)c1 (stereo not drawn)	28µM*	8%[18.4 µM]
SMILES	StopGo reporter	RE007 growth inh
C=CCN1[C@@H](Cc2ccccc2)COCCS1(=O)=O	-8%	-3%
O=C(OCc1cn([C@@H]2CN(CC3CCCCC3)[C@@H](c3ccccc3)C[C@H]2O)nn1)c1ccccc1	-9%	-27%
CNc1cc(-c2ccc(OC)nc2)ncn1	38%[activator]	3%
C=CCOc1cccn2c(N(C=O)Cc3ccc(OC)cc3)c(CC)nc12	-28%	-8%[18.4 µM]
C[C@@H]1CCCCO[C@@H](CN(C)C(=O)Cc2ccccc2)[C@@H](C)CN([C@H](C)CO)C(=O)c2cc(N(C)C)ccc2O1	7%	34%
Cc1cccc(C)c1-n1nnnc1C1c2ccccc2C(=O)N1CCc1ccc(O)cc1 (stereo not drawn)	16%	-7%
c1cnn2c(-c3ccc4c(c3)CCO4)cnc2c1	16%	2%
COC(=O)C1=C(c2ccc(S(C)(=O)=O)cc2)C[C@@H]2CC[C@H]1N2C(=O)NCCCOC(C)C	0%	-1%
CCCCn1c(N)c(N(C(=O)CSc2nncn2-c2ccccc2C)C2CCCC2)c(=O)[nH]c1=O	9%	1%
CC1Cc2[nH]c(=S)[nH]c(=O)c2C(c2ccc(C(C)C)cc2)O1 (stereo not drawn)	-9%	24%
CCc1nc2c(OCCC3CCCCC3)cccn2c1N(C)C(=O)c1ccncc1	-17%	14%
COc1cccc(C(NC(C)=O)c2nc(-c3ccccc3C)cs2)c1 (stereo not drawn)	0%	4%[18.4 µM]
COCCCN1C(=O)C(CC(=O)NC(c2ccccc2)c2ccccc2)CC(C(=O)N(C(C)C)C(C)C)=C1C (stereo not drawn)	-14%	18%
CCCCN1CC(COCc2ccccc2)Oc2cccc(N3CCCC3)c2S1(=O)=O (stereo not drawn)	8%	0%
CC(=O)OC1C(OC(C)=O)C2C(C)CC3OC(=O)C(C)C3CC2(C)C1OC(C)=O (stereo not drawn)	-11%	-5%
O=C(NCc1ccc2c(c1)OCO2)c1[nH]c(C(F)(F)F)nc1-c1ccccc1	0%	-5%
O=C(O)c1sc(C(=O)O)c(-c2ccccc2)c1-c1ccccc1	-12%	-11%
COc1cc2c3cc1Oc1cc(ccc1O)C[C@@H]1c4c(cc(OC)c(O)c4Oc4cccc(c4)C[C@@H]3N(C)CC2)CC[N+]1(C)C	-18%	-5%[18.4 µM]
O=C(O)c1ccc(CNC(=O)c2ccc(S(=O)(=O)N3CCCC3)cc2)cc1	-7%	8%
Cc1ccc(OCc2cc(C(=O)N(C)C3CCCc4ccccc43)no2)cc1C (stereo not drawn)	47%[activator]	5%
CN(c1ccc(O)cc1)c1nc(O)c(C2=c3ccccc3=NC2=O)s1	25%	-7%
CN1OC[C@@H]2CN(C(=O)CCc3ccccc3)[C@H](c3ccc(N4CCCCC4)cc3)C[C@@H]21	6%	-3%
CCC[C@H]1CN(c2ccc(OC)cc2)C(=O)[C@@H]1CC(=O)Nc1ccccc1	10%	-2%
COc1ccc(CN2C(=O)C(CC(=O)NCCCN(C)C)CC(C(=O)N(C(C)C)C(C)C)=C2C)cc1 (stereo not drawn)	-18%	1%
CCOC(=O)[C@]12CCC=C1N(Cc1ccc(Cl)cc1Cl)C(=O)[C@H](CC(=O)NCC1CCCCC1)C2	31%[activator]	19%
SMILES	StopGo reporter	RE007 growth inh
COC(=O)[C@]12CCCCC=C1N(CCc1ccc(OC)c(OC)c1)C(=O)[C@H](CC(=O)NCc1ccc(C)o1)C2	-19%	6%
Cc1ccccc1CN(C)C[C@@H]1OCc2cnnn2CCCC(=O)N([C@H](C)CO)C[C@H]1C	-5%	-17%
CCCCCCCCN1C(=O)[C@H](CC(=O)N2CCN(C(=O)c3ccco3)CC2)C[C@@]2(C(=O)OCC)CCCC=C12	-23%	?
O=C1C2C3CCC(O3)C2C(=O)N1c1cccc(F)c1 (stereo not drawn)	-4%	1%
COc1ccccc1Oc1ccc(NC(=O)Cc2ccccc2)cc1	57%[activator]	-8%
O=C1NC[C@H](CCCCN2CCN(Cc3ccccc3)C(=O)C2=O)N(CCc2ccc(O)cc2)C1=O	-24%	18%
CC(C)N1CCCC(C)(C(=O)Nc2ccccc2)C1 (stereo not drawn)	-15%	22%
Cc1ccc(S(=O)(=O)N2C[C@H]3C(=O)C[C@@H](c4cccc(Cl)c4)N(S(=O)(=O)c4ccc(C)cc4)[C@H]3C[C@H]2c2ccccc2)cc1	-18%	-2%
CS(=O)(=O)n1c2ccccc2c(=O)n1-c1ccccc1CCl	6%	-6%
O=C(c1ccc(Cl)cc1)N1CCC(=O)N(C(CO)Cc2ccccc2)CC1 (stereo not drawn)	-13%	-2%
Clc1ccc(-c2nc3c4ccccc4ccn3c2Cc2cccc(Cl)c2)cc1	-19%	-11%
O=C(COc1ccc(Cl)cc1Cl)NCCN1CCCCC1	-8%	4%

Retrieved by structure from the list above (four):
SMILES	StopGo reporter	RE007 growth inh
CCCCCCCCN1C(=O)[C@H](CC(=O)N2CCN(C(=O)c3ccco3)CC2)C[C@@]2(C(=O)OCC)CCCC=C12	-23%	?
CC(C)N1CCCC(C)(C(=O)Nc2ccccc2)C1 (stereo not drawn)	-15%	22%
O=C1C2C3CCC(O3)C2C(=O)N1c1cccc(F)c1 (stereo not drawn)	-4%	1%
O=C(COc1ccc(Cl)cc1Cl)NCCN1CCCCC1	-8%	4%

By substructure, the entries above with a Cl atom (13)
SMILES	StopGo reporter	RE007 growth inh
CC1(C(=O)NS(=O)(=O)c2ccccc2Cl)CCN1C(=O)c1ccccc1 (stereo not drawn)	-9%	9%
CC1(c2nnc(Cc3ccccc3)o2)CC(c2ccc(Cl)cc2)=NO1 (stereo not drawn)	1%	9%
Cc1ncc(CO)n1Cc1ccc(Cl)cc1	-29%	1%
O[C@@H]1C[C@H](c2ccc(Cl)cc2)N(Cc2cccs2)C[C@H]1n1cc(C2CC2)nn1	-25%	-6%
COc1cc(Cl)ccc1OCc1cc(C(=O)N2CCN(C3CCCCC3)CC2)no1	23%	-2%
CC(C)CC1C(=O)N(Cc2cn(CC3CCCCC3)nn2)CCS(=O)(=O)N1Cc1ccc(-c2ccc(Cl)cc2)cc1 (stereo not drawn)	0%	?
CCN(CC)C(=O)c1cccc(-c2csc(C(O)c3cccc(Cl)c3)n2)c1 (stereo not drawn)	28µM*	8%[18.4 µM]
CCOC(=O)[C@]12CCC=C1N(Cc1ccc(Cl)cc1Cl)C(=O)[C@H](CC(=O)NCC1CCCCC1)C2	31%[activator]	19%
Cc1ccc(S(=O)(=O)N2C[C@H]3C(=O)C[C@@H](c4cccc(Cl)c4)N(S(=O)(=O)c4ccc(C)cc4)[C@H]3C[C@H]2c2ccccc2)cc1	-18%	-2%
CS(=O)(=O)n1c2ccccc2c(=O)n1-c1ccccc1CCl	6%	-6%
O=C(c1ccc(Cl)cc1)N1CCC(=O)N(C(CO)Cc2ccccc2)CC1 (stereo not drawn)	-13%	-2%
Clc1ccc(-c2nc3c4ccccc4ccn3c2Cc2cccc(Cl)c2)cc1	-19%	-11%
O=C(COc1ccc(Cl)cc1Cl)NCCN1CCCCC1	-8%	4%
